ID4 binder: binders of human ID4 protein; P47928; calls only; small molecule microarray, Flag-ID4 binding, fluorescence F/B; 31,000 tested, 1.2% active;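 active = spot signal over background at p below 0.07 in all four prints; compounds were printed on slides so no solution concentration is given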;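 note: a binder raises fluorescence above local background on the spot; about 2 pmol printed per array spot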
Target sequence (P47928 whole entry, looked up): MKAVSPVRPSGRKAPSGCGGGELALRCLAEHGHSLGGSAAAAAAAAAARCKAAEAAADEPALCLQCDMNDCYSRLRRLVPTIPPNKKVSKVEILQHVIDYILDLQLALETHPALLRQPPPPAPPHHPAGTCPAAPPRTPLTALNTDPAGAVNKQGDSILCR
p53 mut binder: binds human mutant p53 on microarray; small molecule microarray binding, anti-GST fluorescence; calls only; 17,000 tested, 0.4% active;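 active = compounds whose four printed spots each glow above background more than chance allows, each with a p-value under 7%; compounds were printed on slides so no solution concentration is given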;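 note: about 2 pmol printed per array spot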
Myc binder: c-Myc (human) binding. P01106. small molecule microarray, His-c-Myc binding, anti-His fluorescence. calls only. 17,000 tested, 1.5% active. AID 624141;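 active = spot fluorescence over background with P-value below 7% in all four replicate spots, showing protein binding; compounds were printed on slides so no solution concentration is given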;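 note: score is binary with 100 for all four spots passing and 0 otherwise; about 2 pmol printed per array spot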
STAT3 SMM: binds human STAT3 on microarray. 17,000 tested, 0.2% active. Small molecule microarray, His-STAT3 binding, anti-His fluorescence. calls only. P40763;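 active = compounds whose four printed spots each show fluorescence over background unusually high for their array block, chance value under 7%; compounds were printed on slides so no solution concentration is given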;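 note: about 2 pmol printed per array spot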
Target sequence (P40763 whole entry, looked up): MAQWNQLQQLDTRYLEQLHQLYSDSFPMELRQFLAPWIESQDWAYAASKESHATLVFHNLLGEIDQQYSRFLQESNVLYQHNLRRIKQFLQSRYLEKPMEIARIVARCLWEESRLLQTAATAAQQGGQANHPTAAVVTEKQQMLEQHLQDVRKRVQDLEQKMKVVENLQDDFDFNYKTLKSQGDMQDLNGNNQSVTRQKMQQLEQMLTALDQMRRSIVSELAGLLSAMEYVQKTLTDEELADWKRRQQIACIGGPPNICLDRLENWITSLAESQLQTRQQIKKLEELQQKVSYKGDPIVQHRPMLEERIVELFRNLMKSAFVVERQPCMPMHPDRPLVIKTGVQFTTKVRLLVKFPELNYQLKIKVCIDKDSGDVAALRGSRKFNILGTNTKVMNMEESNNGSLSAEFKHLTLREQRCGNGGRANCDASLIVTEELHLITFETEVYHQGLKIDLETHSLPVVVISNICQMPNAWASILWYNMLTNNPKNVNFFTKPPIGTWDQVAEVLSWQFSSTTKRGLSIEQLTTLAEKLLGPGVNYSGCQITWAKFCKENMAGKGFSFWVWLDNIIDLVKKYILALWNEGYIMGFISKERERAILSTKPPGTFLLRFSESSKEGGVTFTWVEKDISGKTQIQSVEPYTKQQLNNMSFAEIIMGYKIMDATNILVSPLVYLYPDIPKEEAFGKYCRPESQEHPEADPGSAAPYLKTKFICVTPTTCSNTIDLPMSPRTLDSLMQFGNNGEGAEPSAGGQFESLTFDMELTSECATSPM
Calls only; i = inactive; x = no result given; + = active, no number. A portion of the library; the hit share may differ from the screen's.

SMILES	ID4 binder	p53 mut binder	Myc binder	STAT3 SMM
C[C@H](CO)N1C[C@H](C)[C@@H](CN(C)Cc2ccc(Oc3ccccc3)cc2)Oc2ccc(NS(=O)(=O)c3ccccc3)cc2C1=O	x	i	i	i
C[C@@H]1CCCCO[C@H](CN(C)C(=O)CCCN(C)C)[C@@H](C)CN([C@@H](C)CO)C(=O)c2cc(NC(=O)CCCN(C)C)ccc2O1	i	i	i	i
C[C@@H]1CN([C@H](C)CO)C(=O)Cc2cc(NC(=O)C3CC3)ccc2O[C@H]1CN(C)Cc1ccc(C(F)(F)F)cc1	i	i	i	i
COc1ccc(S(=O)(=O)N(C)C[C@H]2Oc3c(NC(=O)C4CC4)cccc3C(=O)N([C@H](C)CO)C[C@@H]2C)cc1	i	i	i	i
CC(=O)Nc1ccc(OCC(O)Cn2cnc3ccccc32)cc1 (stereo not drawn)	i	i	i	i
C[C@H](CO)N1C[C@H](C)[C@@H](CN(C)C(=O)Nc2cccc3ccccc23)Oc2c(NS(=O)(=O)c3ccc(Cl)cc3)cccc2C1=O	i	i	i	i
CC(C)=CC1C(C(=O)O)C1(C)C (stereo not drawn)	i	i	i	i
O=C(CCN1C(=O)C2C3C=CC(C3)C2C1=O)Nc1cccc2ccccc12 (stereo not drawn)	i	i	i	i
COc1ccc(NC(=O)Nc2ccc3c(c2)CC(=O)N([C@H](C)CO)C[C@@H](C)[C@H](CN(C)S(=O)(=O)c2cn(C)cn2)O3)cc1	x	i	i	i
CS(=O)(=O)N(CC(=O)Nc1cccc(F)c1)c1cccc(F)c1	i	i	i	i
C[C@@H]1CN([C@@H](C)CO)C(=O)c2cc(NS(=O)(=O)c3cccs3)ccc2O[C@@H]1CN(C)C(=O)Nc1ccc(F)cc1	i	i	i	i
C[C@@H]1CN([C@H](C)CO)C(=O)Cc2cc(NC(=O)Cc3ccccc3)ccc2O[C@H]1CN(C)CC1CC1	i	i	i	i
C[C@@H]1CN([C@H](C)CO)C(=O)Cc2cc(NC(=O)NC3CCCCC3)ccc2O[C@H]1CN(C)C(=O)NC1CCCCC1	i	i	i	i
C[C@@H]1CN([C@@H](C)CO)C(=O)c2cc(NC(=O)Nc3ccccc3)ccc2O[C@@H](C)CCCCO[C@@H]1CN(C)Cc1ccncc1	i	i	i	i
C[C@@H]1CN([C@H](C)CO)C(=O)c2cccc(NC(=O)c3cnccn3)c2O[C@H]1CN(C)S(C)(=O)=O	x	i	i	i
O=C(OCC1OC(Oc2ccc(O)cc2COC(=O)C2(O)C(O)CCC2(O)C(=O)O)C(O)C(O)C1O)c1ccccc1 (stereo not drawn)	i	i	i	i
Cc1noc(C)c1S(=O)(=O)Nc1ccc2c(c1)C(=O)N([C@@H](C)CO)C[C@H](C)[C@@H](CN(C)C(=O)Nc1ccccc1)OCCCC[C@@H](C)O2	i	i	i	i
Cc1noc(C)c1NC(=O)N(C)C[C@H]1Oc2ccc(NC(=O)NC3CCCCC3)cc2C(=O)N([C@H](C)CO)C[C@H]1C	i	i	i	i
COc1ccccc1CNCc1cccc(OC)c1OC	i	i	i	i
C[C@@H]1CN([C@@H](C)CO)C(=O)c2cccc(NC(=O)Nc3ccc(C(F)(F)F)cc3)c2O[C@H]1CN(C)S(=O)(=O)c1ccccc1	i	i	i	i
COc1ccc(S(=O)(=O)N(C)C[C@H]2Oc3c(NS(=O)(=O)c4ccccc4)cccc3C(=O)N([C@H](C)CO)C[C@H]2C)cc1	i	i	i	i
Cn1c(SCC(=O)Nc2ccc(C(=O)O)cc2)nnc1-c1ccncc1	i	i	i	i
C[C@H]1CN([C@@H](C)CO)C(=O)Cc2cc(NC(=O)NC3CCCCC3)ccc2O[C@H]1CN(C)Cc1ccccc1	i	i	i	i
Cc1cccc(NC(c2ccccc2[N+](=O)[O-])c2ccc3ccc(C)nc3c2O)n1 (stereo not drawn)	i	i	i	i
C[C@@H]1CN([C@H](C)CO)C(=O)c2cc(NC(=O)CCC(F)(F)F)ccc2O[C@H]1CN(C)C	i	i	i	i
C[C@H](CO)N1C[C@H](C)[C@@H](CN(C)CC2CC2)Oc2ccc(NC(=O)Nc3cccc4ccccc34)cc2CC1=O	i	i	i	i
CC(=O)NC(Cc1c[nH]c2ccccc12)C(=O)OCc1cc(C(F)(F)F)cc(C(F)(F)F)c1 (stereo not drawn)	i	i	i	i
OCCCc1n[nH]c(=S)n1-c1ccccc1	i	i	i	i
C[C@@H]1CN([C@H](C)CO)C(=O)Cc2cc(NS(=O)(=O)c3ccc(F)cc3)ccc2O[C@H]1CN(C)C(=O)Nc1ccc(C(F)(F)F)cc1	x	i	i	i
C[C@H](CO)N1C[C@H](C)[C@H](CN(C)C(=O)Nc2ccc(F)cc2)Oc2c(NC(=O)NC3CCCCC3)cccc2C1=O	i	i	i	i

Part of the list above, with two lines to a compound:
Below each compound: ID4 binder | p53 mut binder | Myc binder | STAT3 SMM
> C[C@H](CO)N1C[C@H](C)[C@@H](CN(C)CC2CC2)Oc2ccc(NC(=O)Nc3cccc4ccccc34)cc2CC1=O
  i | i | i | i
> CC(=O)NC(Cc1c[nH]c2ccccc12)C(=O)OCc1cc(C(F)(F)F)cc(C(F)(F)F)c1 (stereo not drawn)
  i | i | i | i
> OCCCc1n[nH]c(=S)n1-c1ccccc1
  i | i | i | i

Continued:
SMILES	ID4 binder	p53 mut binder	Myc binder	STAT3 SMM
C[C@@H]1CCCCO[C@H](CN(C)C(=O)CCCN(C)C)[C@@H](C)CN([C@@H](C)CO)C(=O)c2cc(NC(=O)c3ccncc3)ccc2O1	i	i	i	i
O=C(Nc1ccccc1)C(O)C(O)C(=O)Nc1ccccc1 (stereo not drawn)	i	i	i	i
COC(=O)C(C)N(C(=O)c1ccccc1[N+](=O)[O-])c1c(C)cccc1C (stereo not drawn)	i	i	i	i
COc1ccc(CN(C)C[C@H]2Oc3c(NC(=O)Nc4ccc(F)cc4)cccc3C(=O)N([C@H](C)CO)C[C@@H]2C)cc1	i	i	i	i
CC(=O)c1c(C)cc(C)c(CSc2nnc(-c3ccco3)o2)c1C	i	i	i	i
Cc1ccc(OCC(=O)N(c2ccccn2)C2CCCCC2)c(C)c1	i	i	i	i
CCCCCCCCCCCCC/C=C/C(O)C(CO)NC(C)=O (stereo not drawn)	i	i	i	i
CC(=O)Nc1ccc(NC(=O)CCCN2C(=O)c3ccccc3C2=O)cc1	i	i	i	i
Cc1ccccc1CN(C)C[C@@H]1OCc2cnnn2CCCC(=O)N([C@@H](C)CO)C[C@@H]1C	i	i	i	i
COc1cc(O)cc(C2=C(C)CC(O)C2=O)c1 (stereo not drawn)	i	i	i	i
CC(=O)Nc1ccccc1NC(=O)COc1ccc2ccccc2c1Br	i	i	i	i
O=C(O)C1CCCCC1C(=O)NCCc1ccncc1 (stereo not drawn)	i	i	i	i
O=C(CCN1C(=O)c2ccccc2C1=O)Nc1ccc(Nc2ccccc2)cc1	i	i	i	i
CC(C)NC(=O)N(C)C[C@@H]1OCCCC[C@H](C)Oc2ccc(NC(=O)Nc3ccc(F)cc3)cc2C(=O)N([C@@H](C)CO)C[C@H]1C	i	i	i	i
O=C(O)COc1ccc(C(=O)Nc2ccc(F)cc2)cc1	i	i	i	i
C[C@@H]1CN([C@H](C)CO)C(=O)c2cc(NC(=O)Nc3ccc(F)cc3)ccc2O[C@@H](C)CCCCO[C@H]1CN(C)C(=O)c1ccccc1	i	i	i	i
COc1ccccc1CN(C)C[C@H]1OCc2cnnn2CCCC(=O)N([C@H](C)CO)C[C@@H]1C	i	i	i	i
CC(C)NC(=O)N(C)C[C@@H]1OCCCC[C@H](C)Oc2ccc(NC(=O)c3ccccc3)cc2C(=O)N([C@@H](C)CO)C[C@@H]1C	i	i	i	i
COCCOC(=O)N1C(=O)[C@@]2(c3cc(C#CCC(C(=O)OC)C(=O)OC)ccc31)[C@H](C(N)=O)[C@H]1C(=O)O[C@H](c3ccccc3)[C@H](c3ccccc3)N1[C@@H]2c1ccc(OCCO)cc1	x	i	i	i
C[C@@H]1CCCCO[C@@H](CN(C)Cc2ccccc2)[C@H](C)CN([C@H](C)CO)C(=O)c2cc(NC(=O)CCCN(C)C)ccc2O1	i	i	i	i

Nothing new here: 7 of the compounds above.
SMILES	ID4 binder	p53 mut binder	Myc binder	STAT3 SMM
O=C(O)C1CCCCC1C(=O)NCCc1ccncc1 (stereo not drawn)	i	i	i	i
O=C(CCN1C(=O)c2ccccc2C1=O)Nc1ccc(Nc2ccccc2)cc1	i	i	i	i
CC(C)NC(=O)N(C)C[C@@H]1OCCCC[C@H](C)Oc2ccc(NC(=O)Nc3ccc(F)cc3)cc2C(=O)N([C@@H](C)CO)C[C@H]1C	i	i	i	i
O=C(O)COc1ccc(C(=O)Nc2ccc(F)cc2)cc1	i	i	i	i
C[C@@H]1CN([C@H](C)CO)C(=O)c2cc(NC(=O)Nc3ccc(F)cc3)ccc2O[C@@H](C)CCCCO[C@H]1CN(C)C(=O)c1ccccc1	i	i	i	i
COc1ccccc1CN(C)C[C@H]1OCc2cnnn2CCCC(=O)N([C@H](C)CO)C[C@@H]1C	i	i	i	i
CC(C)NC(=O)N(C)C[C@@H]1OCCCC[C@H](C)Oc2ccc(NC(=O)c3ccccc3)cc2C(=O)N([C@@H](C)CO)C[C@@H]1C	i	i	i	i

(next part)
SMILES	ID4 binder	p53 mut binder	Myc binder	STAT3 SMM
O=C(Cn1cnc([N+](=O)[O-])n1)Nc1c(Cl)cccc1Cl	i	i	i	i
Cc1noc(C)c1S(=O)(=O)Nc1ccc2c(c1)C(=O)N([C@@H](C)CO)C[C@@H](C)[C@H](CN(C)C(=O)c1ccncc1)OCCCC[C@H](C)O2	i	i	i	i
C[C@H]1CN([C@@H](C)CO)C(=O)c2cc(NC(=O)NC3CCCCC3)ccc2O[C@@H]1CN(C)C(=O)NC1CCCCC1	i	i	i	i
COc1ccc(S(=O)(=O)N(C)C[C@H]2Oc3ccc(NC(=O)Nc4ccc(C(F)(F)F)cc4)cc3C(=O)N([C@@H](C)CO)C[C@@H]2C)cc1	i	i	i	i
COc1ccc(NC(=O)Nc2ccc3c(c2)C(=O)N([C@H](C)CO)C[C@@H](C)[C@@H](CN(C)C(=O)Nc2ccc(C(F)(F)F)cc2)O3)cc1	x	i	i	i
CCn1c(SCC(=O)N2CCN(c3ccccc3)CC2)nnc1-c1ccccc1O	i	i	i	i
CC(C)NC(=O)Nc1ccc2c(c1)C(=O)N([C@@H](C)CO)C[C@@H](C)[C@H](CN(C)Cc1ccc(C(=O)O)cc1)OCCCC[C@H](C)O2	i	i	i	i
N#Cc1c(N)nc(SCC(=O)c2ccc(Cl)cc2)c(C#N)c1-c1ccco1	i	i	i	i
COc1ccc(S(=O)(=O)Nc2cccc3c2O[C@H](CN(C)Cc2ccncc2)[C@@H](C)CN([C@@H](C)CO)C3=O)cc1	i	i	i	i
O=C(NCCCCN1CCN(c2cccc(Cl)c2Cl)CC1)c1ccc2c(c1)Cc1ccccc1-2	i	i	i	i
Cc1noc(C)c1NC(=O)N(C)C[C@@H]1Oc2ccc(NC(=O)C3CC3)cc2C(=O)N([C@H](C)CO)C[C@H]1C	i	i	i	i
Cc1cccc(S(=O)(=O)NC(C(=O)O)C(C)C)c1 (stereo not drawn)	i	i	i	i
C[C@@H]1CCCCO[C@@H](CN(C)S(=O)(=O)c2ccccc2)[C@@H](C)CN([C@@H](C)CO)C(=O)c2cc(NS(=O)(=O)c3cn(C)cn3)ccc2O1	i	i	i	i
C[C@@H]1CN([C@@H](C)CO)C(=O)c2cccc(NC(=O)Nc3ccc(C(F)(F)F)cc3)c2O[C@@H]1CN(C)S(=O)(=O)c1cn(C)cn1	i	i	i	i
COc1ccccc1S(=O)(=O)N(C)C[C@H]1OCc2cnnn2CCCC(=O)N([C@H](C)CO)C[C@@H]1C	i	i	i	i
COc1ccc2ccccc2c1CNCc1ccccn1	i	i	+	i
C[C@@H]1CN([C@@H](C)CO)C(=O)c2cc(NC(=O)Nc3ccccc3)ccc2O[C@H]1CN(C)C(=O)Nc1ccccc1	i	i	i	i
C[C@@H]1CN([C@H](C)CO)C(=O)c2cccc(NC(=O)Nc3ccc(F)cc3)c2O[C@@H]1CN(C)Cc1ccc(C(=O)O)cc1	i	i	i	i
CN(C)CCN(C)Cc1cc([N+](=O)[O-])ccc1O	i	i	i	i
CC(=O)OC[C@@]12C(=O)C[C@@H](C)[C@]3(C[C@@H](c4ccoc4)OC3=O)[C@H]1CC[C@H](OC(C)=O)[C@]21CO1	i	i	i	i
C=CCOC(=O)C1=C[C@H](c2ccc(C(F)(F)F)cc2)[C@@H](CCCO)[C@H](OCC)O1	i	i	i	i
COc1ccc(S(=O)(=O)N(C)C[C@H]2Oc3ccc(NC(=O)CCC(F)(F)F)cc3C(=O)N([C@@H](C)CO)C[C@H]2C)cc1	i	i	i	i
O=C(C1=C[C@H](C2CCCCC2)C[C@H](OCc2ccc(CO)cc2)O1)N1CCOCC1	i	i	i	i
COC(=O)c1c(NC(=O)c2cc(-c3ccccn3)nc3c(C)cc(C)cc23)sc(C)c1C	i	i	i	i
O=C(O)c1cc(N(Cc2ccccc2O)Cc2ccccc2O)ccc1O	x	i	i	i
C[C@@H]1CN([C@@H](C)CO)C(=O)c2cc(NC(=O)c3ccccc3)ccc2O[C@@H](C)CCCCO[C@H]1CN(C)C(=O)Nc1ccccc1	i	i	i	i
CSc1cccc(NC(=O)CSc2nnc(-c3ccc(Br)cc3)o2)c1	i	i	i	i
O=[N+]([O-])c1ccccc1OCCCCSc1ncccn1	i	i	i	i
O=C(O)CC(c1ccc(F)cc1)c1ccco1 (stereo not drawn)	i	i	i	i
COc1ccc(CN(C)C[C@@H]2Oc3ccc(NC(=O)Cc4ccccc4)cc3CC(=O)N([C@@H](C)CO)C[C@@H]2C)cc1	i	i	i	i
